# TRPML1 blocker: human mucolipin-1 channel inhibition; 390,000 compounds, 0.02% hits; Q9GZU1; TRPML1-inducible cells, Ca2+ dye fluorescence, FDSS; stronger effect = lower value; inhibition of EC80 agonist-evoked calcium signal; activity change, negative = inhibition, % (test concentration not listed); in the data active means activity change below about -50%; inconclusive means about -30% to -50%; inactive means above about -30%;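 further: stimulus is agonist 54-4 at its EC80 concentration; on the % scale 0 is the no-effect control and ±100 the full control effect; compound concentration not given in the record; the text of the record puts the active cut at -80%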
# Target sequence (Q9GZU1 whole entry, looked up): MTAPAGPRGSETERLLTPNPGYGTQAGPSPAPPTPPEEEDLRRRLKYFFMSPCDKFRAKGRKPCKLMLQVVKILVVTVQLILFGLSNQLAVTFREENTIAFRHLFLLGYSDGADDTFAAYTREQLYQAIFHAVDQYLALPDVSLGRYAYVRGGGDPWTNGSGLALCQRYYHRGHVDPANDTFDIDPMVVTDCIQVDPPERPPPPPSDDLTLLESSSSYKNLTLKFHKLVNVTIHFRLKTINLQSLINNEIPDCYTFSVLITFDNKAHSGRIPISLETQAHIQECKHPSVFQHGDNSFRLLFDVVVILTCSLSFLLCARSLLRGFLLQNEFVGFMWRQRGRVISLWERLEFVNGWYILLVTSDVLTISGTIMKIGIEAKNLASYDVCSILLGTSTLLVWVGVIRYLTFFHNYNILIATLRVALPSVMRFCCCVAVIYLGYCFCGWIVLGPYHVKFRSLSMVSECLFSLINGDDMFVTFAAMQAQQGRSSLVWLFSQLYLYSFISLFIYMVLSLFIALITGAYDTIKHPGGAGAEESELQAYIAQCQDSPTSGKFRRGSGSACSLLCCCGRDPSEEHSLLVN
#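 Calcium fluorescence in TRPML1-DL cells induced overnight with Tet: a 110 s read after compound pin addition, then a 110 s antagonist read after challenge with 54-4 at 4 uM final (EC80).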
# PINK1 modulator: PINK1 expression modulation. PINK1 immunofluorescence, high-content cytometry, 24 h. Potency, µM (highest dose often 76.6 µM), for the others: at the highest dose activation (PINK1 increase), hits mostly activators. 410,000 compounds, 0.2% hits. AID 624263; active = well fitted activation curve with a large enough effect; inconclusive = small, poorly fitted or top-dose-only effect; inactive = flat fitted curve, though single readings scatter; cell line not stated here;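 further: potency means the concentration at half of the fitted maximal effect; % of control where 0% means no effect; nearly all actives have a fitted effect of over 65% in size; a mitochondrial uncoupler was the plate control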
#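 PINK1 protein, normally rapidly degraded, was detected by immunofluorescence after 24 hour compound treatment of a stable cell line. Titration data (5 concentrations) came from laser-scanning cytometry, with CCCP-treated wells as controls.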
# TRPML1 agonist: agonists of human TRPML1 channel; TRPML1-expressing cells, Ca2+ dye fluorescence, FDSS; host cell line not named in the record; reference of the full effect not given here; activation, % (concentration not given with the values); 410,000 compounds, 0.12% hits; in the data active = activation above about 50%; inconclusive = about 30% to 50%; inactive = below about 30%; further: 0% is about no effect; the text of the record puts the active cut at 80%
#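 Calcium fluorescence on an FDSS kinetic reader gave the read-out. Tet-induced TRPML1-DL cells were plated overnight, dye-loaded (Ca8 with quencher, 45-90 min, room temperature, dark), then read 110 s after compound addition, and again 110 s after 4uM final 54-4 (EC80).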
# Six1-Eya2 blk: Six1/Eya2 interaction inhibition | AlphaScreen GST-Six1/His-Eya2 binding, biochemical; stronger effect = lower value; control for the full effect not named in the record | Q15475+O00167 | activity change, % (concentration not given with the values) | AID 651725 | 360,000 compounds, 0.56% hits; in the data active = activity change below about -65%; inconclusive = about -30% to -65%; inactive = above about -30%; further: on the % scale 0 is the no-effect control and ±100 the full control effect
#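 AlphaScreen with GST-Six1 and His-Eya2 (5X mix: 250 nM and 500 nM), glutathione donor and nickel acceptor beads; buffer 50 mM Tris pH 8.0, 300 mM NaCl, 1 mM TCEP; 1 h at 37 C in the dark.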
# CtBP-E1A inh: blocks the CtBP interaction with E1A; 340,000 compounds, 0.49% hits; activity change, % (concentration not given with the values); AID 651724; AlphaScreen GST-E1A/His-CtBP binding, 1536-well; stronger effect = lower value; control for the full effect not named in the record; in the data active means activity change below about -65%; inconclusive means about -30% to -65%; inactive means above about -30%; further: on the % scale 0 is the no-effect control and ±100 the full control effect
#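 In 5 uL wells, 23 nL compound meets equimolar GST-E1A and His-CtBP (5X stock 125 nM each) for 2 h, 37 °C. Beads (5X, 50 ug/mL) then 1 h, 37 °C, dark.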
# D2 agonist: agonists of human D2 dopamine receptor (beta-arrestin) | P14416 | DiscoveRx PathHunter D2 beta-arrestin, luminescence, 90 min; 100% = 57 uM dopamine signal | activation, % (no concentration beside the values) | 360,000 compounds, 0.084% hits | AID 624465; in the data active = activation above about 40%; inconclusive = about 15% to 40%; inactive = below about 15%; further: compound concentration not given in the record; the text of the record calls up to 30% inactive
# Target sequence (P14416 whole entry, looked up): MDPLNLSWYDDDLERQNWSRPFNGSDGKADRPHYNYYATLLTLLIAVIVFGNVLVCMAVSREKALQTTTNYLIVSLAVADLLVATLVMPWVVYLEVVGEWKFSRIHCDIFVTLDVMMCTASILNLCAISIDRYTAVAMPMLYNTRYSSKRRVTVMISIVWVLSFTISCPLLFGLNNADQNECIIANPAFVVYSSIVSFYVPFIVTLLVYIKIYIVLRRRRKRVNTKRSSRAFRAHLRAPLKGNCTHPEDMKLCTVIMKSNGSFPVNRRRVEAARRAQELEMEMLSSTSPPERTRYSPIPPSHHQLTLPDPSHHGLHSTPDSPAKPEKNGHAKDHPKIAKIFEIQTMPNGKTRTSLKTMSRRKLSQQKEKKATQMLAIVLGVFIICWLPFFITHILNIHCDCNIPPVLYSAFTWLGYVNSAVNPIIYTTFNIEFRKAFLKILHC
#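 Agonist mode: compounds alone added to overnight-plated D2 PathHunter cells for 90 min at 37 C, with 57 uM final dopamine (EC100) defining full response. Beta-arrestin recruitment detected by chemiluminescent reagent, read after 1 h at ambient temperature.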
# * = called active by the depositor; ? = inconclusive; . = no result given; & = joins results of further samples; [ ] = remark or other dose.
SMILES,TRPML1 blocker,PINK1 modulator,TRPML1 agonist,Six1-Eya2 blk,CtBP-E1A inh,D2 agonist
CN(C(=O)c1ccc(Br)o1)C1CCS(=O)(=O)C1 (configuration not stated),25.4,-0.2%,-0.3,3.1,5.4,0.6
Cc1ccc(CSc2ncnc3c2cnn3Cc2ccccc2)cc1,15.8,0.7%,1.7,22.2,28.7,-3.3
Cc1ccc(C)n1-c1nnc(N2CCCC(C(=O)NCc3ccc(Cl)cc3)C2)s1 (configuration not stated),17.6,1.2%,2.4,.,.,.
CN(c1ccc(C(=O)NCCSCc2ccc(Cl)cc2)cc1)S(=O)(=O)c1ccccc1,-10.0,2.9%,0.4,-2.2,6.7,-3.0
CCCOc1ccc(C2NC(=O)NC(c3ccccc3)=C2C(C)=O)cc1OCC (configuration not stated),45.8,?,0.2,3.5,11.3,-1.6
COc1ccccc1N(CC(O)CN1CCOCC1)S(=O)(=O)c1ccccc1 (configuration not stated),-2.4,-0.8%,-0.1,13.3,43.0,2.2
CN(C)c1ccc(C=NNC(=O)c2cccc3ccccc23)c(Cl)c1,19.8,3.5%,2.7,4.2,-22.7,5.8
CCOc1ncccc1C(=O)OCC(=O)N1CC(=O)Nc2ccccc21,-9.4,-2.0%,6.2,-0.6,2.8,-0.6
O=C(CCc1ccccc1)NC(c1cccs1)c1cc(Cl)c2cccnc2c1O (configuration not stated),-8.3,21.2%,2.7,-2.5,23.8,-3.9
O=C(CCc1ccccc1)N/N=C/c1cccc(O)c1,-5.9,-0.4%,0.2,0.9,.,1.7
CC(=O)N1CCc2c(sc3c2c(=O)n(Cc2ccccc2)c(=O)n3CC(=O)NCC2CCCO2)C1 (configuration not stated),5.4,1.1%,-0.3,1.4,0.2,-4.3
CC[C@]12c3[nH]c4cc(CCC(=O)N(C)C)ccc4c3CCN1C(=O)[C@@H](CC(=O)NCC13CC4CC(CC(C4)C1)C3)C[C@@H]2C(=O)N1CCN(C(=O)C2CC2)CC1,-17.4,3.3%,1.6,3.9,-9.6,-0.3
O=C(NCCc1ccccc1)c1ccc(-c2ccccc2C(F)(F)F)o1,2.9,?,1.4,-4.1,-2.4,-0.3
COc1cc(NC(=O)Cc2ccccc2)ccc1NC(=O)c1ccccc1,0.3,8.9%,-0.6,-2.0,0.2,2.6
CCc1noc(C)c1C(=O)Nc1cc(S(=O)(=O)N2CCOCC2)ccc1OC(C)C,14.7,-0.2%,0.3,-2.8,8.0,-5.2
COc1ccccc1CNC(=O)c1cnc2sc(N3CCCCC3)nn2c1=O,-13.5,4.1%,-1.4,.,.,.
Cn1c(SCCN2CCOCC2)nc2sc3c(c2c1=O)CCCC3,27.5,-0.2%,-0.2,1.9,-0.3,-5.5
COc1ccc(S(=O)(=O)N2CCC3(CC2)OCCN3S(=O)(=O)c2cccs2)cc1OC,3.2,-0.8%,-0.2,-1.6,1.0,-2.7
Cc1c(Cl)cccc1NC(=S)N1CCC(C(N)=O)(N2CCCCC2)CC1,10.9,1.1%,1.0,2.6,6.9,2.6
Cc1cccc(N(C(=O)CCC(=O)Nc2ccccn2)C(C(=O)NC(C)C)c2ccc(O)cc2)c1 (configuration not stated),3.2,1.0%,0.0,8.5,-3.0,0.4
NC(=O)[C@@H]1CCCNc2c(F)cc([N+](=O)[O-])cc2C(=O)N[C@@H](CO)C(=O)NCC(=O)N1,10.8,3.4%,-0.4,-5.4,-1.5,-0.7
CC(=O)Nc1ccc(S(=O)(=O)Nc2cccc(-c3nc4ccccc4o3)c2)cc1,-8.0,.,0.1,-12.1,-17.9,1.0
O=C(c1ccc(CSc2ccc(Cl)cc2)cc1)N1CCOCC1,25.6,-0.7%,1.2,-1.4,.,-0.8
N#CCCN(CCC#N)C(=O)C1c2ccccc2Oc2ccccc21,35.8,0.1%,0.8,-1.4,2.6,-1.7
CC1(C)Cc2noc(N)c2C(C)(C)N1OC(=O)c1cccs1,-6.4,0.3%,-0.3,-0.3,3.7,0.7

# Among those listed so far, these contain two or more sulfur atoms:
SMILES,TRPML1 blocker,PINK1 modulator,TRPML1 agonist,Six1-Eya2 blk,CtBP-E1A inh,D2 agonist
CN(c1ccc(C(=O)NCCSCc2ccc(Cl)cc2)cc1)S(=O)(=O)c1ccccc1,-10.0,2.9%,0.4,-2.2,6.7,-3.0
Cn1c(SCCN2CCOCC2)nc2sc3c(c2c1=O)CCCC3,27.5,-0.2%,-0.2,1.9,-0.3,-5.5
COc1ccc(S(=O)(=O)N2CCC3(CC2)OCCN3S(=O)(=O)c2cccs2)cc1OC,3.2,-0.8%,-0.2,-1.6,1.0,-2.7

# Next results:
SMILES,TRPML1 blocker,PINK1 modulator,TRPML1 agonist,Six1-Eya2 blk,CtBP-E1A inh,D2 agonist
CN(Cc1cc(Cl)cc(Cl)c1O)Cc1c(O)ccc2ccccc12,-3.4,7.5%,-0.2,-13.8,-11.8,-0.7
COc1ccc(CNC(=O)c2cc3c(=O)[nH]c4ccccc4c3n2C)c(OC)c1,-11.6,1.9%,1.5,.,.,.
Cn1cc(CNCCN2CCCCC2=O)c(-c2cccc(Cl)c2)n1,-6.5,-0.5%,-0.6,-0.5,2.4,-0.3
COC(=O)c1ccc(NC(=O)CSc2nnc(-c3ccncc3)n2N)cc1,-3.2,2.0%,0.5,2.8,13.2,-1.5
CCCC(=O)NCC(c1cccs1)S(=O)(=O)c1ccc(Cl)cc1 (configuration not stated),0.2,0.4%,-0.7,4.2,16.2,-0.4
C=CCn1c(=S)[nH]c2scc(-c3ccc(C)o3)c2c1=O,6.1,0.1%,0.5,-15.8,-15.5,-3.4
CCOC(=O)Nc1ccc2c(COC(=O)c3ccccc3O)cc(=O)oc2c1,19.0,16.3%,0.6,-4.0,0.7,-0.8
COc1ccc(Cc2nc3ccc(C(=O)NCCc4ccccn4)cc3o2)cc1OC,1.6,2.0%,0.0,0.4,7.0,9.6
COC(=O)CN1C(c2ccccc2O)Nc2ccc(Br)cc2C1c1ccccc1 (configuration not stated),-8.9,7.8%,1.2,-9.1,-7.8,-3.8
Cc1c(CC(=O)O)c(=O)oc2c(C)c3occ(-c4ccc(F)cc4)c3cc12,-0.4,-0.5%,-0.3,-28.8,-72.5*,-2.6
CN(C)c1ccc(-c2nc(-c3cc4cc(Cl)ccc4oc3=O)cs2)cc1,-5.4,3.1%,-0.8,.,.,.
CCOc1ccc(S(=O)(=O)N2CCN(c3ccccn3)CC2)cc1,5.0,-0.8%,-0.7,-0.3,.,2.8
CC(C)C(C)(C#N)NC(=O)CN1C(=O)NC2(CCCc3ccccc32)C1=O (configuration not stated),-7.5,-0.7%,0.4,4.4,1.1,-4.2
COc1ccc(CCNC(=O)COC(=O)Cc2cc(OC)c(OC)c(OC)c2)cc1,3.7,-1.7%,0.2,-0.6,0.0,2.3
COc1ccc(C(=O)N2CCC(N3CCN(c4ccccc4)CC3)CC2)cc1,-12.5,1.7%,1.0,5.7,-4.9,11.7
Brc1ccc(C=Nc2ccc(Nc3ccccc3)cc2)s1,-20.2,-0.4%,2.4,?,-14.2,?
CC1(C(=O)NS(=O)(=O)Cc2cccc(Cl)c2)CCN1C(=O)Cc1ccc(-c2ccccc2)cc1 (configuration not stated),.,1.1%,-0.6,-5.1,-3.4,-1.9
CCOC(=O)c1c(C)[nH]c(C(=O)COC(=O)c2oc3ccc(OC)cc3c2C)c1C,5.4,0.4%,-0.3,11.0,-1.6,0.5
Cc1ccc(NC(=O)CCC(=O)N2CCC(c3ccccc3)=N2)cc1S(=O)(=O)N1CCCCC1,53.3,11.2µM*,-0.4,10.0,0.0,2.1
CCCCN(C1CCS(=O)(=O)C1)S(=O)(=O)c1ccc(OC)c(OC)c1 (configuration not stated),-0.4,1.9%,-0.4,0.1,7.5,-2.3
C=C(C)C(=O)O[C@H]1C/C(C)=C\C(=O)/C=C(\C)[C@H](O)[C@@H]2OC(=O)C(=C)[C@@H]21,18.6,?,-0.3,-8.5,-7.9,-0.5
CC(C)(O)C#Cc1ccc(C(=O)N2CCC(C(N)=O)(N3CCCCC3)CC2)o1,2.9,-1.9%,0.1,-11.7,-17.7,-4.6
Cc1ccc(SCC(=O)NC(=O)NC(C)C)c(C)c1,-11.0,3.3%,-0.3,-1.1,2.2,-0.7
CN1C(=O)CC(C(=O)Nc2ccc(F)cc2)SC1=Nc1ccc2c(c1)OCO2 (configuration not stated),-8.6,.,1.1,-9.0,7.0,4.1
COc1cc(OC)cc(-c2nc3nc(C)c(CCC(=O)NCCC(C)C)c(C)n3n2)c1,-1.9,1.6%,0.0,.,.,.

# Additional results follow:
SMILES,TRPML1 blocker,PINK1 modulator,TRPML1 agonist,Six1-Eya2 blk,CtBP-E1A inh,D2 agonist
CCCCn1c(=O)n(CC(=O)Nc2c(CC)cccc2CC)c(=O)c2c1nc(CO)n2CCC,2.4,3.3%,0.3,-1.2,1.6,-1.7
CS(=O)(=O)c1ccc(Cl)c(NC(=O)CCl)c1,-10.1,-3.6%,-0.5,11.7,-17.0,-4.0
Cn1c(=O)c2c(nc(SCC(=O)OCc3ccccc3)n2C)n(C)c1=O,-3.1,-2.7%[38.3 µM],-0.1,1.2,7.7,-2.0
O=C(CN1C(=O)S/C(=C/c2ccccn2)C1=O)N1CCOCC1,-3.0,-1.6%,0.3,-3.4,.,-4.8
NC1=NC(c2cc(F)cc(F)c2)n2c(nc3ccccc32)N1 (configuration not stated),19.4,-0.3%,-0.6,.,.,.
Cc1ccc([N+](=O)[O-])cc1-c1ccc(/C=N/NC(=O)c2cc3c(ccc4ccccc43)o2)o1,25.2,1.5%,-1.5,4.9,-10.7,-0.3
CCc1ccc(Nc2sc(C(=O)c3ccc(F)cc3)c(N)c2S(=O)(=O)c2ccccc2)cc1,-1.0,3.4%,0.1,.,.,.
COc1cccc(/C=N/NC(=O)Cn2nc(C)c([N+](=O)[O-])c2C)c1O,36.4,1.3%,0.0,-94.6*,-93.9*,-4.4
CC(C)(C)c1ccc(CC(=O)N2CCC2(C)C(=O)NS(=O)(=O)c2cccc(F)c2)cc1 (configuration not stated),0.5,0.1%,0.2,19.4,8.8,-3.3
Cn1nc(C(=O)N2CCN(c3cccc(Cl)c3)CC2)c2c1-c1ccccc1S(=O)(=O)C2,-27.2&21.0,0.3%&-0.9%,0.7&0.2,-11.8,-9.5,4.2
COc1ccc(Br)cc1Cn1nnc(C(=O)Nc2ccc(C)cc2C)c1N,26.9,4.3%,2.0,.,.,.
O=[N+]([O-])c1ccc(C=Nc2cccc3ccccc23)s1,-10.3,4.2%,-0.2,?,-69.6*,8.2
OC(CN1c2ccccc2Sc2ccccc21)Cn1nnc2ccccc21 (configuration not stated),28.1,-1.8%,1.4,-7.8,-5.0,0.8
O=C(NC1CCCCC1)C(c1ccncc1)N(Cc1ccc2c(c1)OCO2)C(=O)C(F)(F)F (configuration not stated),-5.6,-1.3%,-0.5,1.3,-1.5,5.6
O=C(NCCCn1ccnc1)c1ccc(-c2ccccc2)cc1,6.1,3.0%,-0.2,-0.6,.,-2.8
NC(=O)CN1CCN(c2ccccc2F)CC1,-5.6,-2.8%,0.7,17.8,0.5,0.2

# High-throughput results: PubChem BioAssay, National Center for Advancing Translational Sciences (NCATS)
